Screens from PubChem.
VACV Venus inh = inhibitors of vaccinia virus (Venus reporter) | AID 720580 | Potency, µM (highest dose often 36.5 µM), inactives show at the top dose activity change, negative = inhibition, hits mostly inhibitors | 0.46% of 330,000 active | Vaccinia virus Venus reporter expression, fluorescence; active means well fitted inhibition curve with a large enough effect; inconclusive means small, poorly fitted or top-dose-only effect; inactive means no such curve, though single readings can be large or run the other way; tested in A549 cells; also: nearly all actives have a fitted effect of over 30% in size; inactives centre near -10
Vaccinia mCherry = inhibitors of vaccinia virus infection (mCherry reporter signal); Vaccinia virus mCherry reporter infection, fluorescence; about a quarter of the inactives have no number; Potency, µM (top dose mostly 36.5 µM), for inactives: top-dose activity change, negative = inhibition, most hits filed as inhibitors; 0.63% of 310,000 active; active = well fitted inhibition curve with a large enough effect; inconclusive = small, poorly fitted or top-dose-only effect; inactive = no such curve, though single readings can be large or run the other way; tested in A549 cells; also: nearly all actives have a fitted effect of over 35% in size; inactives centre near -10
An asterisk follows results filed as active; i = inactive; ? = inconclusive; / = not tested or not shown; & = joins results of further samples; [ ] = remark or other dose. % is scaled to controls: 0 for no effect and ±100 for the full control effect; potency is read from the fitted curve at half-maximal effect. Rows were taken by chance, and some 0.87% of all compounds hit somewhere here.

Values in the order – VACV Venus inh | Vaccinia mCherry
CCOC(=O)Cn1nc(CC)c2ccccc2c1=O
→ -7% | -24%
CN(C(=O)Oc1cccc2ccccc12)C1C=CCC1 (configuration not stated)
→ 10% | ?
COc1ccc(OCC(=O)NNc2c3ccccc3nc3ccccc23)cc1
→ ? | -22%
NC(Cc1ccccc1)c1csc(Nc2ccccn2)n1 (configuration not stated)
→ ? | ?
N#CC1=C(O)CCCn2c1nc1ccccc1c2=O
→ -7% | 0%
CCOC(=O)N(C)c1c(CC)nc2c(OCc3cccc(Cl)c3)cccn12
→ -12% | -14%
Clc1ccccc1OCCCCN1CCCC1
→ -11% | i
CCOC(=O)CSc1nc(N)c2c3c(sc2n1)CCCC3
→ -17% | -23%
Cc1ccc2nc(-c3cc(-c4ccccc4)no3)cn2c1
→ -3% | i
CCCCCCNc1ncnc2c1sc1nc(N3CCOCC3)c3c(c12)CCCC3
→ -16% | -11%
COc1ccc(SCC(=O)Nc2ccccc2Cl)cc1
→ 0% | -4%
COc1cccc(-n2ccnc2SCC(=O)Nc2nc3ccc(C)cc3s2)c1
→ -14% | -2%
CCOc1ccc(NCc2nnc(SCC(=O)Nc3nc(-c4ccccc4)cs3)n2-c2ccccc2)cc1
→ ? | 11µM*
CC(=O)Nc1cc2c(cc1NC(=O)Cn1nc(-c3ccccc3)ccc1=O)OCCO2
→ 21% | i
O=C(NC(=S)Nc1ccc2oc(=O)ccc2c1)c1cc2ccccc2o1
→ 3% | -10%
CCN1CCN(c2c(S(=O)(=O)c3ccc(C)c(C)c3)cnc3ccc(F)cc23)CC1
→ -11%&-20% | -7%&-20%
Cc1cccc(NC(=O)c2ccc(F)c(S(=O)(=O)N3CCN(c4ccc(F)cc4)CC3)c2)c1
→ ? | ?
C[C@@H]1CN([C@H](C)CO)C(=O)CCCn2nncc2CO[C@H]1CN(C)C(=O)C1CC1
→ -13% | -8%
COc1ccc(-c2oc3cc(O)c(OC)c(O)c3c(=O)c2OC)cc1O
→ ? | ?
Cc1cc(C(=O)NCC(=O)Nc2ccc(F)c(F)c2)c(C)o1
→ 9% | 1%
Cc1nc2ccccn2c1C(=O)N/N=C/c1ccccc1[N+](=O)[O-]
→ -4% | i
O=C(Nc1nnc(S(=O)(=O)N2CCCC2)s1)c1ccccc1F
→ 2%&-8% | -8%&3%
COc1cc(C(=O)OCc2cc(=O)n3ccsc3n2)cc(OC)c1OC
→ -13% | -12%
O=C(Cn1c2[n+](c3ccc(C(F)(F)F)cc31)CCCCC2)Nc1c(F)cccc1F
→ 10% | -5%
CCOC(=O)c1c(S(=O)(=O)N2CCCC(C(=O)N3CCN(c4cccc(C)c4C)CC3)C2)c(C)n(C)c1C (configuration not stated)
→ -10% | -20%
Fc1ccc(Cn2ccc(-c3cnc(-c4ccccc4)s3)n2)cc1
→ ? | /
O=C(OCc1ccccc1)N1CCC2CC1c1cc(N3CCN(S(=O)(=O)c4cc(Cl)cc(Cl)c4)CC3)ccc12 (configuration not stated)
→ -13% | i
CCOC(=O)C1CCN(Cc2ccccc2C)CC1
→ -8% | -2%
CCOc1ccccc1C(=O)Nc1ccc(S(=O)(=O)N(Cc2ccccc2)c2ccccc2)cc1
→ -6% | -19%
Cc1ccc(OCC(=O)Nc2nonc2-c2ccc(C)c(C)c2)cc1C
→ 9% | -4%
Cc1cccc(OCc2ccc(C(=O)Nc3cc(C)on3)o2)c1
→ -5% | -8%
CN(Cc1ccc(F)cc1)S(=O)(=O)c1nnc(NC(=O)c2ccc(F)cc2)s1
→ -24% | -26%
CCCC(=O)N1CCc2cc(OC)c(OC)cc2C1COc1ccc(C(=O)OC)cc1 (configuration not stated)
→ -11% | 0%
CC(C)CC(=O)N1CCC(O)(CS(=O)(=O)c2ccc(Cl)c(Cl)c2)CC1
→ -11% | -5%
COC(=O)C1=C(c2ccc(OC)c(OC)c2)C[C@@H]2CC[C@H]1N2C(=O)NC1CC1
→ -11% | -8%
CN(C(=O)CCc1nnc(Cc2ccc(-c3ccccc3)cc2)o1)C1CCOCC1
→ -1% | i
CC(C)c1ccc(NC(=O)C2CCCN(S(=O)(=O)c3cccc4nsnc34)C2)cc1 (configuration not stated)
→ -13% | -24%
CC(C)c1ccc(N2C(=O)CSC23C(=O)N(Cc2cccc(F)c2)c2ccccc23)cc1 (configuration not stated)
→ -29% | ?
CCN(CCCNC(=O)c1[nH]c(C)c(C(C)=O)c1C)c1ccccc1
→ -16% | -13%
O=C(CSc1ccc(-c2ccccn2)nn1)Nc1ccc(F)c(F)c1
→ ? | ?
COc1cc(NC(=O)c2cccnc2Sc2ccc(C)c(C)c2)cc(OC)c1OC
→ -27% | -6%
NC(Cc1ccc2nonc2c1)C(=O)O (configuration not stated)
→ -13% | -17%[1.46 µM]
COc1cc(C(=O)Nc2cc(C)c(O)c(-c3nc4cc(Cl)ccc4o3)c2)cc(OC)c1OC
→ ? | ?
CCOC(=O)c1c(NC(=O)/C=C/c2ccc(Cl)cc2)sc2c1CCC(C)C2 (configuration not stated)
→ -9% | -5%
COCCCNC(=O)c1cc(Cc2ccccc2)sc1N
→ -6% | ?
O=c1[nH]cc(S(=O)(=O)N2CCN(c3ccccc3F)CC2)c(=O)[nH]1
→ -6% | i
Cc1cc(-c2ccc(NS(=O)(=O)c3ccccc3)c(C)c2)ccc1NS(=O)(=O)c1ccccc1
→ -21% | -24%
CC(C)C[C@H](NC(=O)c1nc[nH]c1C(=O)N1CCN(C(=O)OC(C)(C)C)CC1)C(=O)OCc1ccccc1
→ -13% | i
CCCCN(C)c1ncnc2c1cnn2-c1cccc(Cl)c1
→ -7% | -9%
COC1C(OC(=O)c2ccc(C)[nH]2)C(O)C(Oc2ccc3c(O)c(NC(=O)c4ccc(O)c(CC=C(C)C)c4)c(=O)oc3c2Cl)OC1(C)C (configuration not stated)
→ -19% | -3%
CCOC(=O)c1cnc[nH]c1=O
→ -20% | -16%
CC(C)C[C@@H](CNCC(=O)[C@H](Cc1c[nH]c2ccccc12)NC(=O)c1[nH]cnc1C(=O)N[C@@H](C)CN)NC(=O)c1nc[nH]c1C(=O)N[C@@H](CC(=O)O)C(=O)O
→ 10% | i
O=C(NCC(=O)N(c1cccnc1)C(C(=O)NC1CCCCC1)c1ccccc1F)c1ccco1 (configuration not stated)
→ -8% | i
CC(C)(C)C(=O)Nc1ccc(Cl)c(-c2nc3ccccc3[nH]2)c1
→ -12% | 22%
O=c1c(S(=O)(=O)c2ccccc2)cn(Cc2cccc(F)c2)c2cc(N3CCOCC3)c(F)cc12
→ -20% | -9%
Nc1c(N(CCC2=CCCCC2)C(=O)C2CC2)c(=O)[nH]c(=O)n1Cc1ccccc1
→ -12% | -20%
O=C(c1ccc2c(c1)CCC2)N1CCN(Cc2c(F)cccc2Cl)CC1
→ -20% | ?
Cn1cccc1C(=O)OCC(=O)NCCc1ccc(S(N)(=O)=O)cc1
→ -10% | -9%
Cc1c(/C=N/NC(=O)CNc2ccccc2)c2ccccn2c1C(=O)c1ccc(Cl)cc1
→ -26% | -15%
Cc1ccc(NC(=O)C2(C)CCN2C(=O)C2(c3ccc(Cl)cc3)CC2)cc1 (configuration not stated)
→ 10% | i

Continued.
Values in the order – VACV Venus inh | Vaccinia mCherry
COc1ccccc1CN1CC(C(=O)N2CCC(OC)CC2)CCC1=O (configuration not stated)
→ -8% | i
CS(=O)(=O)c1ncc(Cl)c(C(=O)Nc2c(C(=O)c3ccc(Cl)cc3)oc3ccccc23)n1
→ 4% | -5%
Cc1ccc(NC(=O)Nc2cc(C)on2)cc1
→ -11% | i
Cc1ccc(N(C(=O)c2ccco2)C(C(=O)NC2CCCC2)c2cccnc2)cc1 (configuration not stated)
→ -9% | -15%
CCCCCCc1nc2ccccc2c(=O)n1NC(=O)c1c(O)c2c(n(CC(C)C)c1=O)CCCC2
→ -4% | i
CCOC(=O)c1c(-c2ccccc2)c[nH]c1C
→ 0% | -1%
Brc1ccc2ncnc(NCc3cccnc3)c2c1
→ -18% | -3%
Cc1ccc(NC(=O)Cn2ccn(-c3ccccc3)c(=O)c2=O)cc1
→ -13% | -7%
COc1ccc(-n2nc(C(=O)N3CCN(c4cccc(C)c4)C(C)C3)c3c4ccccc4n(C)c3c2=O)cc1Cl (configuration not stated)
→ -4% | i
CC(=O)Nc1ccc(N2C(=O)CC(c3ccccc3)CC2=O)cc1
→ 1% | -11%
Cc1cc(NC(=O)COc2ccccc2C)ccc1NC(=O)c1cccs1
→ -19% | -11%
Cc1nn(-c2ccccc2)c(N2CCCC2)c1/C=N/NC(=S)Nc1cc(C(F)(F)F)ccc1Cl
→ -8% | -7%
CC[C@H](CO)Nc1nc(Nc2cccc(Cl)c2)c2ncn(C(C)C)c2n1
→ 10µM* | ?
CSC1=NCCN1C(=O)c1ccc(S(=O)(=O)N(C)C)cc1
→ -2% | i
O=C(CSc1ncnc2nc[nH]c12)c1ccc([N+](=O)[O-])cc1
→ -20% | -2%
CSc1ccc(/C=N/NC(=O)CN2CCN(Cc3ccc(C)cc3)CC2)cc1
→ -14% | -8%
CS(=O)(=O)NCCSCc1ccccc1
→ -15% | /
CCOC(=O)c1c(NC(=S)N2CCOCC2)sc2c1CCN(C(=O)OCC)C2
→ 1% | ?
COC(=O)C1CCN(C(=O)CSc2nc3nc(C)cc(C)n3n2)CC1
→ -16% | -14%
Cc1ccc(S(=O)(=O)N2CCOCC2)cc1NC(=O)COC(=O)COc1ccc(C#N)cc1
→ -11% | i
Cc1ccccc1Cn1c(C)c(C(=O)NCCC#N)sc1=O
→ 14% | 39%[activator]
CC1(C)N=C(N)N=C(N)N1CCCCc1ccccc1
→ 1µM* | 0.71µM*
CCOC(=O)CNC(=O)c1ccc(C#CC2(O)CCCCC2)cc1
→ -6% | i
C[C@H]1CN([C@@H](C)CO)S(=O)(=O)c2ccc(Br)cc2O[C@H]1CN(C)C(=O)NC1CCCCC1
→ -21% | -14%
Cc1c(-n2cc(C(=O)c3cc(F)ccc3O)cc(C#N)c2=O)c(=O)n(-c2ccccc2)n1C
→ 25% | 4%
Cc1ccc(C(=O)C[n+]2cc(-c3ccccc3)n3c2CCCCC3)cc1
→ -21% | -14%
Cc1ccc(-c2nc3c(c(=O)c4ccccc4n3C)c(=O)n2Cc2ccco2)cc1
→ -1% | -21%
Oc1ccccc1/C=N/n1c2ccccc2c2ccccc21
→ -10% | 0%
CCNc1nc(OCC)nc(N2CCC(Cc3ccccc3)CC2)n1
→ -4% | i
CCOC(=O)c1nnn(CC(=O)Nc2cccc(OC)c2)c1C(=O)OCC
→ -14% | -14%

22 entries from above, set out differently:
compound | VACV Venus inh | Vaccinia mCherry
CCOC(=O)c1c(-c2ccccc2)c[nH]c1C | 0% | -1%
Brc1ccc2ncnc(NCc3cccnc3)c2c1 | -18% | -3%
Cc1ccc(NC(=O)Cn2ccn(-c3ccccc3)c(=O)c2=O)cc1 | -13% | -7%
COc1ccc(-n2nc(C(=O)N3CCN(c4cccc(C)c4)C(C)C3)c3c4ccccc4n(C)c3c2=O)cc1Cl (configuration not stated) | -4% | i
CC(=O)Nc1ccc(N2C(=O)CC(c3ccccc3)CC2=O)cc1 | 1% | -11%
Cc1cc(NC(=O)COc2ccccc2C)ccc1NC(=O)c1cccs1 | -19% | -11%
Cc1nn(-c2ccccc2)c(N2CCCC2)c1/C=N/NC(=S)Nc1cc(C(F)(F)F)ccc1Cl | -8% | -7%
CC[C@H](CO)Nc1nc(Nc2cccc(Cl)c2)c2ncn(C(C)C)c2n1 | 10µM* | ?
CSC1=NCCN1C(=O)c1ccc(S(=O)(=O)N(C)C)cc1 | -2% | i
O=C(CSc1ncnc2nc[nH]c12)c1ccc([N+](=O)[O-])cc1 | -20% | -2%
CSc1ccc(/C=N/NC(=O)CN2CCN(Cc3ccc(C)cc3)CC2)cc1 | -14% | -8%
CS(=O)(=O)NCCSCc1ccccc1 | -15% | /
CCOC(=O)c1c(NC(=S)N2CCOCC2)sc2c1CCN(C(=O)OCC)C2 | 1% | ?
COC(=O)C1CCN(C(=O)CSc2nc3nc(C)cc(C)n3n2)CC1 | -16% | -14%
Cc1ccc(S(=O)(=O)N2CCOCC2)cc1NC(=O)COC(=O)COc1ccc(C#N)cc1 | -11% | i
Cc1ccccc1Cn1c(C)c(C(=O)NCCC#N)sc1=O | 14% | 39%[activator]
CC1(C)N=C(N)N=C(N)N1CCCCc1ccccc1 | 1µM* | 0.71µM*
CCOC(=O)CNC(=O)c1ccc(C#CC2(O)CCCCC2)cc1 | -6% | i
C[C@H]1CN([C@@H](C)CO)S(=O)(=O)c2ccc(Br)cc2O[C@H]1CN(C)C(=O)NC1CCCCC1 | -21% | -14%
Cc1c(-n2cc(C(=O)c3cc(F)ccc3O)cc(C#N)c2=O)c(=O)n(-c2ccccc2)n1C | 25% | 4%
Cc1ccc(C(=O)C[n+]2cc(-c3ccccc3)n3c2CCCCC3)cc1 | -21% | -14%
Cc1ccc(-c2nc3c(c(=O)c4ccccc4n3C)c(=O)n2Cc2ccco2)cc1 | -1% | -21%
